Bioassay records deposited in PubChem BioAssay by National Center for Advancing Translational Sciences (NCATS).
Vaccinia mCherry: vaccinia inhibition (mCherry reporter). 310,000 compounds, 0.63% hits. Potency, µM (series often up to 36.5 µM), for the others: at the top dose activity change, negative = inhibition, most hits filed as inhibitors. Vaccinia virus mCherry reporter infection, fluorescence; about a quarter of the inactives have no number; active = well fitted inhibition curve with a large enough effect; inconclusive = small, poorly fitted or top-dose-only effect; inactive = no such curve, though single readings can be large or run the other way; tested in A549 cells; further: nearly all actives have a fitted effect of over 35% in size; inactives centre near -10
VACV Venus inh: inhibitors of vaccinia virus (Venus reporter); Vaccinia virus Venus reporter expression, fluorescence; Potency, µM (highest dose often 36.5 µM), for inactives: at the highest dose activity change, negative = inhibition, hits mostly inhibitors; 330,000 compounds, 0.46% hits; active means well fitted inhibition curve with a large enough effect; inconclusive means small, poorly fitted or top-dose-only effect; inactive means no such curve, though single readings can be large or run the other way; tested in A549 cells; further: nearly all actives have a fitted effect of over 30% in size; inactives centre near -10
Numbers without * were called inactive; i = inactive; u = inconclusive; x = no result given; [ ] = dose if it differs, or a comment. On the % scale 0 is the no-effect control and ±100 the full control effect; potency means the concentration at half of the fitted maximal effect.

SMILES | Vaccinia mCherry | VACV Venus inh
COc1ccc(OC)c2[nH]c(=O)c(CCNC(=O)c3ccc(S(=O)(=O)N(C)C)cc3)cc12 | -6.1% | -5.6%
C[C@@H]1CCC2[C@@H](C)C(=O)O[C@@H]3OC4(C)CCC1[C@@]23OO4 (stereo not given in full) | u | -7.2%
CCc1ccc(C(O)c2ncc(-c3ccc4ccccc4c3)[nH]2)cc1 (stereo not given) | -1.7% | -0.1%
CCCCN1C(=O)C(=O)N(CC(=O)Nc2sc(C)c(CC)c2C(=O)OCC)C1=O | u | -9.4%
c1ccc(-n2c(Cc3cn4ccsc4n3)nnc2N2CCOCC2)cc1 | -10.8% | 1.1%
COc1ccc(C(=O)O)cc1NC(=S)NC(=O)C(c1ccccc1)c1ccccc1 | i | -9.4%
CN(CC1COc2ccccc2O1)C(=S)Nc1ccccc1F (stereo not given) | -18.4% | -8.6%
Brc1ccc(-c2cn3nc4c(nc3n2)CCCC4)cc1 | i | -7.2%
O=C(CSS(=O)(=O)O)N1CCN(C(=O)c2ccoc2)CC1 | -19.5% | -27.1%
NC(Cc1ccc(C(F)(F)F)cc1)c1csc(Nc2ccc(C(=O)c3ccccc3)cc2)n1 (stereo not given) | u | u
C=COCCn1c(-c2nonc2N)nc2ccccc21 | x | -18.6%
O=C(C[C@@H]1C/C=C\CCCC(=O)OC[C@@H]2CCCN2C1=O)N[C@@H](CO)Cc1ccccc1 | -16.3% | -5.7%
COc1ccc(CNC(=O)C(=O)NCC2CCCN2S(=O)(=O)c2ccccc2)cc1 (stereo not given) | u | -8.4%
Cc1ccc(NC(=O)CN(C)C(=O)C(C)N2CCN(Cc3ccccc3C)CC2)cc1 (stereo not given) | -14.6% | -22.6%
COc1ccc(NC(C)=O)cc1NC(=O)CCn1c(=O)sc2ccccc21 | -13.8% | -0.8%
CCOc1ccc(NC(=O)[C@@H](NC(=O)OCc2ccccc2)[C@@H](C)CC)cc1 | -4.4% | 4.5%
COc1ccc(Br)cc1CN1C(=O)NC2(CCCCCC2)C1=O | i | -13.9%
COc1ccc(C(=O)Nc2cc(-c3nc4ncccc4o3)ccc2C)cc1Br | -5.6% | -2.7%
COCCN(CCOC)C(=O)c1cc2c(=O)n3ccccc3nc2n1C | -8.1% | -7.0%
Cn1c(=O)c2c(nc(N3CCOCC3)n2CCCNC2=NCCC2)n(C)c1=O | x | -10.3%
C=CCc1cc(Cl)ccc1OCCOCCNCCOC | -17.8% | -12.7%
CCc1ccccc1NC(=O)N1CCN(Cc2nc3ccc(C)cc3o2)CC1 | -12.7% | -14.0%
CN1CCN(C(=O)CSc2nc(-c3ccncc3)ccc2C#N)CC1 | x | -9.3%
N#Cc1nc(Cc2ccccc2)oc1NCCc1ccccc1 | -15.5%[1.46 µM] | u
CCOC(=O)c1sc2nc(CSc3ccccc3)nc(NCCN(C)C)c2c1C | -0.1% | 5.0%
Cc1cc(C)n2nc(C(=O)OCC(=O)N(C)Cc3ccccc3)nc2n1 | -12.6% | 3.5%
Cc1ccc2nc(NC(=O)C3CCN(S(=O)(=O)c4cccc5nsnc45)CC3)sc2c1 | -9.3% | 0.0%
Cc1ccc(-n2c(=O)[nH]c3cc(C(=O)NCCc4ccccc4)ccc3c2=O)cc1 | -14.8% | -6.7%
N#Cc1cnc2nc(SCc3ccccc3)nn2c1 | -12.1% | -13.8%
CCOc1ccc(CN2CCSCC2)cc1 | i | -10.3%
CCOc1ccc(CCNC(=O)c2cc3n(n2)CCCN(Cc2ccc(C)cc2)C3=O)cc1OCC | -25.2% | -24.4%
CN(c1ccccc1)S(=O)(=O)c1ccc(C(=O)Nc2nnc(-c3ccc(F)cc3)o2)cc1 | -9.1% | -11.2%
Cc1ccc(S(=O)(=O)NCCC(=O)Nc2cccc(Cl)c2)cc1 | -5.2% | -16.9%
CC(=O)NC(Cc1c(F)c(F)c(F)c(F)c1F)C(=O)NCC(N)C(=O)c1ccccc1 (stereo not given) | -2.2% | -14.1%
Cc1ccc(-c2n[nH]c3c2C(c2cccs2)N(c2ccc(Cl)cc2)C3=O)cc1 (stereo not given) | u | -22.5%
O=C(Cc1c(O)c2ccccc2[nH]c1=O)NC1CCCCCC1 | x | -12.9%
Nc1c2c(nc3c1CCCC3)CCCC2 (tested in a mixture with another compound) | -0.8% | -20.9%
Cc1c(-c2ccnc3cc(C(=O)O)nn23)cnn1C | i | -13.8%
CC1CCCCN1C(=O)c1cc(-c2ccc(Cl)c(Cl)c2)on1 (stereo not given) | -14.5% | -5.3%
CC(=O)Nc1ccc(S(=O)(=O)Nc2ccc([N+](=O)[O-])cc2)cc1 | -5.4% | -9.3%

Ordered by number of heavy atoms (rising): 12 of the compounds above.
SMILES | Vaccinia mCherry | VACV Venus inh
Nc1c2c(nc3c1CCCC3)CCCC2 (tested in a mixture with another compound) | -0.8% | -20.9%
CCOc1ccc(CN2CCSCC2)cc1 | i | -10.3%
Cc1c(-c2ccnc3cc(C(=O)O)nn23)cnn1C | i | -13.8%
C=CCc1cc(Cl)ccc1OCCOCCNCCOC | -17.8% | -12.7%
CC1CCCCN1C(=O)c1cc(-c2ccc(Cl)c(Cl)c2)on1 (stereo not given) | -14.5% | -5.3%
CC(=O)Nc1ccc(S(=O)(=O)Nc2ccc([N+](=O)[O-])cc2)cc1 | -5.4% | -9.3%
CN1CCN(C(=O)CSc2nc(-c3ccncc3)ccc2C#N)CC1 | x | -9.3%
Cc1cc(C)n2nc(C(=O)OCC(=O)N(C)Cc3ccccc3)nc2n1 | -12.6% | 3.5%
CCc1ccccc1NC(=O)N1CCN(Cc2nc3ccc(C)cc3o2)CC1 | -12.7% | -14.0%
CCOC(=O)c1sc2nc(CSc3ccccc3)nc(NCCN(C)C)c2c1C | -0.1% | 5.0%
CC(=O)NC(Cc1c(F)c(F)c(F)c(F)c1F)C(=O)NCC(N)C(=O)c1ccccc1 (stereo not given) | -2.2% | -14.1%
CN(c1ccccc1)S(=O)(=O)c1ccc(C(=O)Nc2nnc(-c3ccc(F)cc3)o2)cc1 | -9.1% | -11.2%

Going on with the list:
SMILES | Vaccinia mCherry | VACV Venus inh
CC(C)C[C@@H](CN1CCC[C@H]1CN1C(=O)C(=O)NC[C@@H]1Cc1ccccc1)N1C[C@H](Cc2ccccc2)N(CCc2ccccc2)C(=O)C1=O | u | -23.2%
COc1ccc(-n2cc(-c3ccccc3)c3c(N4CCOCC4)ncnc32)cc1 | -5.4% | -5.2%
CCOc1nonc1C(=N)/C(C(C)=O)=C(\C)O | x | -11.8%
COc1cccc(NC(=O)C2(S(=O)(=O)c3ccc(Cl)cc3)CC2)c1 | -29.6% | -7.7%
O=C(NN1C(=O)C2C3C=CC(C4CC34)C2C1=O)c1ccc(Cl)cc1 (stereo not given) | x | u
N#CC1(NC(=O)COc2ccc3ccc(=O)oc3c2)CCCCC1 | -4.3% | -3.5%
O=C1NC(=S)NC(=O)C1c1ccccc1 | -14.7% | -5.1%
O=C(Cn1cc(C(=S)N2CCOCC2)c2ccccc21)N1CCOCC1 | x | -9.9%
C/C(=C/c1ccccc1)C(=O)N1CC(C)OC(C)C1 (stereo not given) | i | -12.6%
S=C(Nc1ccccc1Cl)N(CCCN1CCOCC1)Cc1ccccn1 | -15.8% | -4.1%
C[C@@H]1Cc2c(O)c(O)cc(O)c2C(=O)O1 | -4.1% | 2.5%
CCCS(=O)(=O)Nc1cccc(-c2cn3ccsc3n2)c1 | -6.8% | 7.3%
CCOC(=O)C1=C(c2ccccc2)NC(=O)NC1c1cc(Br)c(O)c(OC)c1 (stereo not given) | -29.2% | -2.0%
COc1ccc(CN(C)C(=O)Cn2ccsc2=N)cc1OC | i | 2.7%
N#Cc1ccc(/C=C\c2nccc3c2[nH]c2ccccc23)cc1 | -5.9% | -9.8%
CC(=O)c1c(C)[n+]([O-])c2ccc3c(non3O)c12 | i | -8.2%
COc1cc(NC(=O)c2cccs2)c(C(=O)OCC(=O)c2cc(C)n(-c3ccc(F)cc3)c2C)cc1OC | -1.5% | -5.5%
C=CCCCCc1nc2ccccc2c(=O)n1N | -2.0% | -18.4%
COc1ccc(NC(=O)Nc2ccc3c(c2)C(=O)N([C@H](C)CO)C[C@H](C)[C@@H](CN(C)C(=O)NC(C)C)O3)cc1 | i | -4.9%
CC(C)c1ccc(NC(=S)NC2CCCCCC2)cc1 | i | -21.4%
Cc1ccc(C(=O)Nc2ccc(N3CCOCC3)cc2N2CCOCC2)cc1 | -1.2% | -13.4%
CC(C)[C@H](NC(=O)[C@H](Cc1ccccc1)n1c(=O)[nH]c2ccccc2c1=O)C(=O)N1CCC[C@H]1C(=O)O | 9.7% | -5.2%
Cc1cc(C)n2nc(SC(C)C(=O)N3CCOCC3)nc2n1 (stereo not given) | i | -7.8%
CCNC(=O)c1cc2c(=O)n3cccc(C)c3nc2n(Cc2ccc(C)cc2)c1=N | x | -11.2%
Nc1ncnc2c1ncn2[C@@H]1O[C@H](CNS(=O)(=O)CCCCl)[C@@H](O)[C@H]1O | i | -4.3%
COc1ccc(C(=O)O)c(O)c1 | -5.7% | -0.3%
O=C(Nc1ccccc1N1CCOCC1)c1ccc2ccccc2c1 | i | 0.0%
O=C(Cc1ccc(NC(=O)C2CCN(C(=O)C3CCCC3)CC2)cc1)Nc1ccc(C(=O)N2CCOCC2)cc1 | -15.0% | 8.2%
COc1ccc(C(C(=O)NCc2ccccc2)N(C(=O)c2snc(C(N)=O)c2N)c2ccccc2OC)cc1OC (stereo not given) | -18.1% | -3.5%
CC[C@]12C(=O)N(C)C[C@H]([C@@H]3C(=O)N(Cc4ccccc4)C(=O)[C@@H]31)N2C(=O)c1ccc(F)cc1 | i | -9.7%
Cc1ccc(-c2onc(C)c2C)cc1S(=O)(=O)N1c2ccccc2CC1C (stereo not given) | u | -29.6%
O=C(COC(=O)c1ccccc1NCCO)Nc1ccc(S(=O)(=O)NC2=NCCCCC2)cc1 | -19.0% | -11.1%
c1cc2c(cc1[C@H]1OCC3C1CO[C@@H]3c1ccc3c(c1)OCO3)OCO2 (stereo not given in full) | 18.5% | -20.2%
COc1cccc(-c2nn(-c3ccccc3)cc2CO)c1 | u | -27.1%
Cc1ccccc1C(=O)c1cccn1CC(=O)NCc1ccc(Cl)cc1 | -5.8% | -10.0%
CC(=O)NCCC(=O)Nc1cc(S(=O)(=O)N2CCCCC2)ccc1Oc1ccccc1 | -3.1% | -18.7%
CCC1C(=O)N=C(SCC(=O)NC2CCCCC2)NC1=O (stereo not given) | i | -9.5%
Cc1c(Br)c(C(F)(F)F)nn1CC(=O)NCc1ccccc1 | i | -21.7%
CCC1CCc2c(sc(NC(=O)c3cccnc3)c2C(N)=O)C1 (stereo not given) | -4.3% | -8.0%
COc1cc2oc(=O)cc(-c3ccc(-c4ccc(C#N)cc4)cc3)c2c(OC)c1OC | -27.1% | -2.7%
COc1ccc(/C=C2/SC(=O)N(CC(O)Cn3c4ccccc4c4ccccc43)C2=O)cc1 (stereo not given) | -18.1% | -9.3%
COc1ccccc1C(c1nnnn1C(C)C)N1CCN(C(=O)c2ccco2)CC1 (stereo not given) | -3.6% | 0.4%
Cc1cc2c(N3CCCCC3C)ncnc2s1 (stereo not given) | x | u
CCC1(C(=O)c2ccc(Cl)cc2)C2c3ccccc3OC(=O)C21C(=O)Nc1ccccc1 (stereo not given) | -28.8% | -17.0%
CCCCOCCCNC(=O)C[C@@H]1C[C@@]2(C(=O)OCC)CCCC=C2N(CCc2ccc(OC)c(OC)c2)C1=O | -24.5% | -28.5%
O=C(Cc1cccnc1)N[C@@H]1CC[C@H](CCn2cc(Cc3ccccc3)nn2)O[C@@H]1CO | -11.5% | -3.0%
O=C(C[n+]1ccccc1)N/N=C/c1ccc(O)cc1 | 5.6% | 1.9%
CC(=O)c1ccc(Nc2nc(C(N)c3ccccc3)cs2)cc1 (stereo not given) | -11.5% | -10.3%
Cc1ccc(NS(=O)(=O)c2ccc(-c3ccc(=O)[nH]n3)o2)cc1Cl | -1.0% | u
COc1cc(Cl)ccc1OCc1cc(C(=O)N(C)Cc2nnc(C)o2)no1 | -11.6% | -6.9%
Oc1ccc(C[C@H]2CNC(=S)N2C[C@H]2CCCN2C[C@H](Cc2ccccc2)N2C[C@H](Cc3ccc(O)cc3)N(CC3CCCCCC3)C2=S)cc1 | -13.5% | -22.1%
CCOC(=O)c1cnc2ccccc2c1Nc1cccc(OC)c1 | -14.2% | -6.9%
COC(=O)CCCNC(=O)c1ccc(OS(=O)(=O)c2cc([N+](=O)[O-])ccc2C)cc1 | -9.7% | -17.1%
COc1ccc(-c2nnc(SCC(=O)Nc3ccc(C)cc3)n2C)cc1 | -5.0% | -16.4%
COc1ccc(C(=O)C2CCCN(Cc3cc(Cl)ccc3O)C2)c(OC)c1 (stereo not given) | -1.7% | 3.5%
CC1=C(C(=O)Nc2ccccc2)C(c2ccccn2)n2nc(SCc3ccccc3)nc2N1 (stereo not given) | -6.5% | -4.7%
O=[N+]([O-])c1cccnc1N1CCC(c2cc(-c3cccc(C(F)(F)F)c3)n[nH]2)CC1 | -25.1% | u
COc1ccc(C)cc1S(=O)(=O)N(CC(=O)N1CCOCC1)c1cc(C)cc(C)c1 | -5.6% | -23.2%
COc1ccc(N(C)C(=O)c2cn(C3CCCCC3)c(=O)c3c2c2ccccc2n3C)cc1 | -25.5% | -21.3%
